E coli growth – blocks Escherichia coli growth; OD600, 23 h; active compounds read low; OD600 absorbance (no concentration beside the values); 330,000 compounds, 0.21% hits;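 active = OD600 absorbance below the run mean of sample wells minus 3.6 SD, in any replicate, cut at about 0.56 in these data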;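 also: stock transfer was 300 nL into about 60 µL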
Vif TR-FRET – HIV-1 Vif–A3G interaction blockers – biochemical, TR-FRET, GST-Vif 1-94, biotin-A3G peptide, dose response retest, primary screen (AID 1117319); TR-FRET GST-Vif / biotin-A3G peptide binding; higher % means a stronger effect; test concentration not given here; strong numbers were not always called active; inhibition, %, or IC50 in µM where a hit was titrated; 260,000 compounds, 0.57% hits;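 active = above the screen mean plus three standard deviations and confirmed in dose response; inconclusive = results disagree or hit not tested in dose response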;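 also: Vif residues 1-94 fused to GST binding biotinylated APOBEC3G peptide 110-148; 0% = full assay without inhibitor and 100% = GST in place of GST-Vif; retest series ran down from 100 µM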
Ecoli rRNA inh – selective bacterial rRNA inhibition in E. coli; E. coli WT GFP vs humanized-ribosome RFP mutants, fluorescence, 24 h; active compounds read low; DMSO median 0, no signal -100; GFP signal change (wild-type ribosome), % (no concentration beside the values); 350,000 compounds, 1.6% hits; AID 720706;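 active = significant combined selectivity score with lowered wild-type GFP, culture density cut under 30%, mutant RFP and density less affected; inactive = any of these conditions unmet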; also: one replicate is shown; some compounds called inactive have numbers as strong as hits
ALR inh – inhibitors of human sulfhydryl oxidase ALR | purified ALR, DTT oxidation, H2O2 HRP-luminol luminescence | inhibition, % (concentration not given with the values) | 290,000 compounds, 3.8% hits;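 active = mean and each replicate at 75% or more; inconclusive = only one of the two met; inactive = neither met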;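 also: stock transfer was 7.5 nL into about 7.5 µL; 0% = neutral wells and 100% = wells with inactivated enzyme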
HNF4A DNA FP – change in binding of human HNF4 alpha to DNA. HNF4a-FITC DNA binding, fluorescence polarization, 1 h. activity change, % at 10 µM. 360,000 compounds, 0.3% hits. AID 1224865; in the data active = activity change above about 30%, passing the limit was not always enough;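 also: controls were the assay level and a saturating level of protein; the project sought stronger binding though the title names inhibitors; some compounds called inactive have numbers as strong as hits; positive values seem to mean higher polarization but the record does not say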
Target sequence (P41235 whole entry, looked up): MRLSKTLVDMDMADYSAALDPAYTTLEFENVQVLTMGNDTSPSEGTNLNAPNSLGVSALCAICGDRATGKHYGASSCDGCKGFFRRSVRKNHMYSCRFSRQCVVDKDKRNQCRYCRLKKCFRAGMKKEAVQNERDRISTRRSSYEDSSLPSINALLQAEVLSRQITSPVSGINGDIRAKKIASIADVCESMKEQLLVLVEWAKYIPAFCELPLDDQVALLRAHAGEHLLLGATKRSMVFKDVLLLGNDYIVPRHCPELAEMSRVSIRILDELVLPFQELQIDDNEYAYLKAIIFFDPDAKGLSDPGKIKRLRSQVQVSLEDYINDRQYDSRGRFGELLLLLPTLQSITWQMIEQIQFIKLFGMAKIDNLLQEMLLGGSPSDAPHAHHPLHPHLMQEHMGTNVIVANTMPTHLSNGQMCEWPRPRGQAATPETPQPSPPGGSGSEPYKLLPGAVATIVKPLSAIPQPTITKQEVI
MLL AF4-AF9 inh – inhibitors of human MLL-AF4/AF9 interaction; AlphaScreen, biotin-AF4 peptide binding to FLAG-AF9; P42568; 350,000 compounds, 0.47% hits; inhibition, % at 10 µM;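 active = every replicate reaching a set inhibition limit, whatever the replicate mean, cut at about 25% in these data; inconclusive = mean inhibition reaches that limit but some replicates miss it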;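 also: 0% = plate neutral control median and 100% = total signal loss; the record names both 10 and 1 µM as test concentration; the first replicate is given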
Target sequence (P42568 whole entry, looked up): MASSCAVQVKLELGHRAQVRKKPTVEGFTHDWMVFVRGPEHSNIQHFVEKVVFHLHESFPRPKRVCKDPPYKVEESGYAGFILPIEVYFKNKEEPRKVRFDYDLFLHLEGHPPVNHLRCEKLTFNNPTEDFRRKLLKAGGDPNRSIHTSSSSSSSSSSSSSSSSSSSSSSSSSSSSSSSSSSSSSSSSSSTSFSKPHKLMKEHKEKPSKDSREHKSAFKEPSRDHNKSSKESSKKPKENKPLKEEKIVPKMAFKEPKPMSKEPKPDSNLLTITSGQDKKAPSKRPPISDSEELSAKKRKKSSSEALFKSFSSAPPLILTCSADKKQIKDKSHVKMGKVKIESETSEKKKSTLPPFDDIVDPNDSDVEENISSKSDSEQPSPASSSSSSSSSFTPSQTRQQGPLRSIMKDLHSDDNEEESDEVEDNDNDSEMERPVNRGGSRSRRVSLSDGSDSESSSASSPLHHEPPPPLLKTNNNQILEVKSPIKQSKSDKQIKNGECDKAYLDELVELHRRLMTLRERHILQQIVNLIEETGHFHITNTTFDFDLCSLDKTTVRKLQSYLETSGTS
FGF22 binding – FGF22 (human) thermal shift binding | Q9HCT0 | calls only at 9.99 µM | recombinant FGF22 thermal shift, SYPRO orange fluorescence; percent of sucrose octasulfate shift, DMSO zero | AID 651658 | 340,000 compounds, 1.5% hits;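 active = melting point raised past a set limit in the mean and every replicate; inconclusive = no clear call; three in four hits are not shown here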
Ecoli rRNA inh OD600 – also measured in Ecoli rRNA inh; calls as there; OD600 change, %; measured here: OD600 growth;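 optical density of the mix in the first replicate; 0 = DMSO median and -100 = no signal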
Ecoli rRNA inh RFP – second read-out of Ecoli rRNA inh, no call of its own (marks repeat the call); RFP signal change, %; measured here: RFP humanized mutant strains;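 first replicate; 0 = DMSO median and -100 = no signal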
The depositor's hits bear a star; i = inactive; ? = inconclusive; · = no result given; & = joins results of further samples.

nr	E coli growth	Vif TR-FRET	Ecoli rRNA inh	Ecoli rRNA inh OD600	Ecoli rRNA inh RFP	ALR inh	HNF4A DNA FP	MLL AF4-AF9 inh	FGF22 binding	Compound
1	·	10%	·	·	·	10	-2.4	-1.2	i	COC(=O)C(Cc1ccc(O)cc1)NC(=O)C(CC(=O)OC(C)(C)C)NC(=O)OC(C)(C)C (centres undefined)
2	·	·	1	4	2.1	·	·	-0.6	i	O=C(C[C@@H]1CC[C@@H]2NC[C@H](O)COC[C@H]2O1)NCc1ccc(Oc2ccccc2)cc1
3	·	·	2	9	0.7	·	0.2	1.2	i	CN[C@H](C)C(=O)NC[C@H]1O[C@@H](n2cc(C)c(=O)[nH]c2=O)C[C@@H]1O
4	0.68	4%	6	7	-1.4	-12	-1.7	1.1	i	COc1ccc(Cc2noc(CN(C)CC3(N4CCOCC4)CCCCC3)n2)cc1OC
5	0.68	-8%	·	·	·	98*	-0.9	·	·	O=C(CCc1ccccc1)NNC(=S)NC(=O)c1ccccc1
6	0.66	22%	·	·	·	84*	-1.2	·	·	Cc1cc(C(=O)NN=C2CCCCC2)c2ccccc2n1
7	0.71	-7%	·	·	·	-4	3.9	·	·	Cc1nc(NC(=O)c2cc3c(C)nn(-c4ccccc4)c3s2)sc1C(=O)Nc1ccccc1
8	0.69	-5%	-4	-3	0.7	-2	·	-1.5	i	CCOCCCNC(=O)Cc1ccc(F)cc1
9	0.62	?	10	15	-1.7	15	-1.5	·	·	O=C(Nc1ccsc1C(=O)N1CCCCCC1)c1ccccc1
10	0.69	1%	0	12	-2.2	·	-3.8	1.3	i	COC(=O)c1ccc(COc2c(F)c(F)cc(F)c2F)o1
11	0.73	-10%	5	2	-7.4	-1	5.0	-0.7	i	c1ccc(CSc2nnc3ccc(-c4ccco4)nn23)nc1
12	·	·	0	-6	-0.1	·	·	3.2	i	CS(=O)(=O)N1[C@H](C#N)[C@@H](c2ccc(C#CC3CCCCC3)cc2)[C@H]1CO
13	0.63	-6%	10	9	0.5	-4	9.5	2.6	i	CCc1ccc(NC(=O)C2CCCN2C(=O)NC2CCCCC2)cc1 (centres undefined)
14	0.69	·	-3	-14	5.0	-2	2.7	0.8	i	Cc1ccc(S(C)=O)cc1-n1c(=O)n(Cc2ccccc2)c(=O)c2[nH]cnc21 (centres undefined)
15	·	·	1	-7	-1.2	·	·	-1.0	i	O=C(C[C@H]1C=C[C@H](NC(=O)CN2CCOCC2)[C@H](CO)O1)NCCc1ccccc1
16	0.66	-20%	-10	-5	-0.7	-1	-1.6	-6.3	i	CC(=O)c1cc2c(s1)-c1cc(F)ccc1OC2
17	0.7	30%	12	9	-1.5	-6	-1.3	·	·	O=C(COC(=O)c1ccc(S(=O)(=O)N2CCCC2)cc1)NCc1ccccc1
18	0.72	-11%	·	·	·	-6	1.9	·	·	COc1ccc(N(Cc2cc3cccc(C)c3[nH]c2=O)S(C)(=O)=O)cc1
19	0.69	-5%	5	-4	0.7	4	1.9	3.2	i	COc1ccc(N(C(=O)c2cnccn2)C(C(=O)NCc2ccccc2)c2ccc(O)cc2)cc1 (centres undefined)
20	·	·	-1	6	-1.9	·	·	2.0	i	CC(C)CC#Cc1ccc2c(c1)O[C@@H](CN(C)Cc1ccc(F)cc1)[C@@H](C)CN([C@@H](C)CO)S2(=O)=O
21	0.72	·	5	11	11	-1	5.0	1.9	i	CC(C)c1ccc(NC(=O)c2cc(S(=O)(=O)N3CCCCC3)c[nH]2)cc1
22	0.65	-14%&-7%	·	·	·	5	-4.2	·	·	COc1cccc(-n2nnc3c(=O)n(CC(=O)N4CCC(Cc5ccccc5)CC4)cnc32)c1
23	0.68	-2%	·	·	·	-4	6.4	·	·	NC(=O)NC(Cc1ccccc1)C(=O)NCC1(N2CCCCC2)CCCCC1 (centres undefined)
24	·	·	-6	-14	-12	·	0.4	-1.8	i	CCc1cc(Cn2nc(-c3ccccc3)cc2C(=O)NCc2cccc(C(F)(F)F)c2)on1
25	0.65	2%	6	5	-13	-15	-0.9	-3.3	i	COc1ccc(-c2cn3cccnc3n2)cc1NC(=O)C1CC1
26	·	·	-1	-4	-1.7	·	·	3.2	i	COc1ccc(NC(=O)Nc2ccc3c(c2)OC[C@H](C)NC[C@@H](C)[C@@H](OC)CN(C)C3=O)cc1
27	0.81	?	·	·	·	-26	0.0	·	·	COc1ccc(-c2nc(-c3ccc(NC(=O)c4ccc(Br)o4)cc3)no2)cc1OC
28	0.67	0%	9	7	-3.4	3	-2.7	·	·	COC(=O)COc1ccc(S(=O)(=O)Nc2ccc(C(N)=O)cc2)cc1
29	·	·	7	15	-2.7	·	·	2.1	i	C[C@H]1CN([C@@H](C)CO)S(=O)(=O)c2ccc(C#CCN(C)C)cc2O[C@H]1CN(C)C(=O)CN(C)C
30	·	·	0	-13	-5.0	·	·	1.0	i	C[C@@H]1CN([C@H](C)CO)S(=O)(=O)c2ccc(-c3cccnc3)cc2O[C@H]1CN(C)C(=O)C1CCC1

2 entries from above, as a markdown table:
| # | SMILES | E coli growth | Vif TR-FRET | Ecoli rRNA inh | Ecoli rRNA inh OD600 | Ecoli rRNA inh RFP | ALR inh | HNF4A DNA FP | MLL AF4-AF9 inh | FGF22 binding |
| --- | --- | --- | --- | --- | --- | --- | --- | --- | --- | --- |
| 22 | COc1cccc(-n2nnc3c(=O)n(CC(=O)N4CCC(Cc5ccccc5)CC4)cnc32)c1 | 0.65 | -14%&-7% | · | · | · | 5 | -4.2 | · | · |
| 23 | NC(=O)NC(Cc1ccccc1)C(=O)NCC1(N2CCCCC2)CCCCC1 (centres undefined) | 0.68 | -2% | · | · | · | -4 | 6.4 | · | · |

Compound profiles (already shown). Order of screens: E coli growth	Vif TR-FRET	Ecoli rRNA inh	Ecoli rRNA inh OD600	Ecoli rRNA inh RFP	ALR inh	HNF4A DNA FP	MLL AF4-AF9 inh	FGF22 binding
COC(=O)C(Cc1ccc(O)cc1)NC(=O)C(CC(=O)OC(C)(C)C)NC(=O)OC(C)(C)C (centres undefined) reads ·	10%	·	·	·	10	-2.4	-1.2	i
COc1ccc(NC(=O)Nc2ccc3c(c2)OC[C@H](C)NC[C@@H](C)[C@@H](OC)CN(C)C3=O)cc1 reads ·	·	-1	-4	-1.7	·	·	3.2	i
COc1ccc(-c2nc(-c3ccc(NC(=O)c4ccc(Br)o4)cc3)no2)cc1OC reads 0.81	?	·	·	·	-26	0.0	·	·

The listing continues.
nr	E coli growth	Vif TR-FRET	Ecoli rRNA inh	Ecoli rRNA inh OD600	Ecoli rRNA inh RFP	ALR inh	HNF4A DNA FP	MLL AF4-AF9 inh	FGF22 binding	Compound
31	0.74	-2%	·	·	·	-12	0.0	·	·	O=C(Nc1cc(C(F)(F)F)ccc1N1CCOCC1)c1cccc(F)c1
32	0.74	22%	·	·	·	-2	2.9	·	·	CC(C)(C)C1CCC(OC(=O)c2ccncc2)CC1 (centres undefined)
33	·	-5%	7	20	-1.6	·	-3.1	-1.3	i	CCC(CC)CN1CCC(CN2C(=O)C(=O)NC[C@@H]2[C@@H](C)CC)CC1
34	·	·	-4	1	-1.5	·	·	2.4	i	Cc1ccc(S(=O)(=O)N2C[C@H](O)COC[C@@H]3O[C@@H](CC(=O)N[C@@H]4CCN(Cc5ccccc5)C4)CC[C@H]32)cc1
35	0.7	-5%	-11	-4	-6.2	63	-2.5	0.5	i	COc1ccccc1N1CCN(C(c2cccs2)C(C)NC(=O)c2ccco2)CC1 (centres undefined)
36	·	·	5	8	-1.4	·	·	-0.8	i	C[C@H]1CN([C@@H](C)CO)C(=O)c2cc(NC(=O)C3CC3)ccc2O[C@@H]1CN(C)C(=O)Nc1cccc2ccccc12
37	0.65	32%	·	·	·	·	1.9	·	·	CCOC(=O)c1nnn(CC(=O)N2N=C(c3ccccc3)CC2c2ccccc2)c1C(=O)OCC (centres undefined)
38	0.67	-4%	·	·	·	-6	-1.0	·	·	CN1C=C(C(F)(F)F)C=C/C1=C(\C#N)c1nnc2n1CCCCC2
39	·	·	-20	-28	0.8	·	·	-4.7	i	C[C@@H]1CN([C@@H](C)CO)C(=O)c2cccc(NS(=O)(=O)c3ccccc3)c2O[C@H]1CN(C)C(=O)Nc1ccc(C(F)(F)F)cc1
40	0.69	·	-17	-24	0.9	·	-4.3	1.8	i	COc1cccc(COC(=O)c2cc(S(=O)(=O)N3CCOCC3)ccc2Cl)c1OC
41	·	·	4	-6	11	·	·	-2.1	i	C[C@@H]1CCCCO[C@@H](CN(C)Cc2ccc(Cl)c(Cl)c2)[C@H](C)CN([C@@H](C)CO)C(=O)c2cc(NS(=O)(=O)c3cccs3)ccc2O1
42	0.72	11%	·	·	·	9	3.1	·	·	CCOC(=O)c1c(C)nc(-c2ccccc2)nc1N
43	0.69	·	·	·	·	-2	-0.3	·	·	Cc1cc2cc(CCNC(=O)c3ccc(C)c([N+](=O)[O-])c3)c(=O)[nH]c2cc1C
44	·	-3%	2	8	-0.7	-2	-0.3	-0.4	i	Cc1nc(/C=C\C(=O)O)c2cc(C)oc2n1
45	·	-4%	12&2	3&11	0.8&-1.6	·	3.4	-3.3&10	i	C[C@@H]1CN([C@H](C)CO)C(=O)CCCn2nncc2CO[C@H]1CN(C)C(=O)Nc1ccc(N2CCN(C)CC2)cc1
46	0.67	8%	·	·	·	-1	5.0	·	·	CC1(C)N=C(N)NC(Nc2ccc(Br)cc2)=N1
47	·	·	1	-1	-3.4	·	·	-3.4	i	COc1ccc(NC(=O)N(C)C[C@@H]2OCCCC[C@@H](C)Oc3ccc(NC(=O)Nc4ccc(F)cc4)cc3C(=O)N([C@H](C)CO)C[C@@H]2C)cc1
48	0.66	·	-25	-49	1.6	7	0.3	2.0	i	Cc1cc(C)nc(SCC(=O)c2ccc(C)c(C)c2)n1
49	·	·	-1	5	-1.0	·	·	-4.5	i	CCNC(=O)Nc1ccc2c(c1)C(=O)N(C)[C@H]1CC[C@@H](CC(=O)N[C@@H](C)c3ccccc3)O[C@@H]1CO2
50	·	·	-2	-1	-1.1	·	·	-1.5	i	C[C@@H]1CN([C@H](C)CO)C(=O)c2cc(NC(=O)c3ccccc3)ccc2O[C@@H](C)CCCCO[C@@H]1CN(C)S(=O)(=O)c1ccccc1

2 entries from above in another layout:
entry | smiles | E coli growth | Vif TR-FRET | Ecoli rRNA inh | Ecoli rRNA inh OD600 | Ecoli rRNA inh RFP | ALR inh | HNF4A DNA FP | MLL AF4-AF9 inh | FGF22 binding
42 | CCOC(=O)c1c(C)nc(-c2ccccc2)nc1N | 0.72 | 11% | · | · | · | 9 | 3.1 | · | ·
27 | COc1ccc(-c2nc(-c3ccc(NC(=O)c4ccc(Br)o4)cc3)no2)cc1OC | 0.81 | ? | · | · | · | -26 | 0.0 | · | ·

This is a subset (hit frequency here may not be typical).
